# VACV Venus inh – vaccinia inhibition (Venus reporter) | Vaccinia virus Venus reporter expression, fluorescence | Potency, µM (top dose mostly 36.5 µM), for the others: top-dose activity change, negative = inhibition, usual class: inhibitors | AID 720580 | hit rate 0.46% among 330,000; active means well fitted inhibition curve with a large enough effect; inconclusive means small, poorly fitted or top-dose-only effect; inactive means no such curve, though single readings can be large or run the other way; tested in A549 cells; note: nearly all actives have a fitted effect of over 30% in size; inactives centre near -10
# VACV mCherry inh – inhibitors of vaccinia virus infection (mCherry reporter signal). Potency, µM (highest dose often 36.5 µM), for inactives: at the highest dose activity change, negative = inhibition, hits mostly inhibitors. hit rate 0.63% among 310,000. Vaccinia virus mCherry reporter infection, fluorescence; about a quarter of the inactives have no number; active = well fitted inhibition curve with a large enough effect; inconclusive = small, poorly fitted or top-dose-only effect; inactive = no such curve, though single readings can be large or run the other way; tested in A549 cells; note: nearly all actives have a fitted effect of over 35% in size; inactives centre near -10
# * hit, by the source's call; i = inactive; ? = inconclusive; / = not tested or not shown; [ ] = another dose, or the depositor's remark. % is set by controls: 0 for no effect and ±100 for the full control effect; potency is the fitted concentration of half-maximal effect.
mol | VACV Venus inh | VACV mCherry inh
Cc1ccc(F)cc1C(=O)N1CCCC(c2cc(C(=O)Nc3ccccc3)no2)C1 (centres undefined) | -17% | i
COc1cccc(C(C[N+](=O)[O-])c2c(C)[nH]n(-c3ccccc3)c2=O)c1 (centres undefined) | -8% | -1%
CC(NC(=O)[C@@H](NC(=O)[C@@H]1Cc2ccccc2CN1)C(C)C)c1ccccc1 (some centres undefined) | -12% | -12%
COC(=O)Cc1ccc(NC(=O)c2ccc3c(c2)C(=O)N(Cc2ccco2)C3=O)cc1 | -22% | -27%
CCCNC(=O)N1CCC(n2nccc2NC(=O)CCOc2ccccc2)CC1 | -3% | -14%
Cc1sc2ncn(CC(=O)N3CCN(c4ccc(F)cc4)CC3)c(=O)c2c1S(=O)(=O)N1CCCCC1 | -12% | -4%
COc1ccc(NC(=O)CN2CCN(Cc3ccccc3)CC2)cc1 | -14% | -17%
CCOc1ccc(OCCN2C(=O)NC3(CCCc4ccccc43)C2=O)cc1 (centres undefined) | -27% | -14%
CCOCCc1nnc(NC(=O)COC)s1 | 2% | -12%
CCn1cc(S(=O)(=O)N2CCN(Cc3ccc(F)cc3)CC2)cn1 | 1% | 0%
Clc1ccc2nnnc(-c3ccccc3)c2c1 | 13µM* | 13µM*
CCN(c1ccc(C)cc1C)S(=O)(=O)c1nnc(NC(=O)c2ccc(F)cc2)s1 | ? | ?
CCCCc1ccc(-n2c(Cc3cccs3)n[nH]c2=S)cc1 | -12% | -14%
CC(C)CC(C(=O)Nc1ccc2c(c1)OCCO2)N1C(=O)c2ccccc2C1=O (centres undefined) | -5% | /
CC(C)=CCC(C)(C)/C=N/NC(N)=O | -13% | -16%
O=C1C2C3C=CC(C3)C2C(=O)N1/N=C/c1cc(Br)cc([N+](=O)[O-])c1O (centres undefined) | -9% | /
COC(=O)C1CCN(S(=O)(=O)c2ccc(Br)s2)CC1 | -13% | -14%
O=C(c1ccco1)N1CCN(C(=O)c2cc(-c3ccccc3)nc3ccccc23)CC1 | -6% | -9%
CCOC(=O)N1CCN(c2c(N3CCN(c4ccccc4OC)CC3)c(=O)c2=O)CC1 | -1% | 9%
CC(=O)c1cc(-c2ccccc2)n(CCC(=O)NC2CCCC2)c1C | -5% | i
CCc1cc(=O)oc2cc3occ(-c4ccc(OC)c(F)c4)c3cc12 | -21% | ?
CC1=C(C(=O)OCC2CCCCC2)C(c2ccccc2F)CC(=O)N1 (centres undefined) | -3% | 4%
CCC(C)[C@H](NC(=O)C1(c2ccccc2)CCN(C(=O)OC(C)(C)C)CC1)C(=O)N[C@@H](C(=O)O)c1ccccc1 (some centres undefined) | 11% | 4%
COc1ccccc1C(=O)Nc1ccccc1C(=O)N1C(C)CCCC1C (centres undefined) | -13% | i
Cc1cc(NC(=O)NCc2ccc3c(c2)CCN3C(=O)c2ccccc2)ccc1Br | ? | -15%
CCOC1=C2[C@@H](CN(S(=O)(=O)c3ccccc3C)[C@H]2c2ccc(Cl)cc2)[C@H]2C(=O)N(c3ccccc3)C(=O)[C@H]2C1 | -15% | i
Cc1ccc(C(=O)Nc2ccc(C(=O)N/N=C/c3c[nH]c4ccccc34)cc2)cc1 | -19% | i
O=S(=O)(Cc1ccccc1Cl)NCCOc1ccccc1 | -23% | -22%
CCCN(C(=O)c1ccc(N(C)S(=O)(=O)c2ccc(C)cc2)cc1)C1CCS(=O)(=O)C1 (centres undefined) | -17% | i
O=C(OCc1cncs1)c1ccccc1 | -6% | -23%
COc1ccc(NC(=O)c2cc(=O)c3ccccc3o2)cn1 | -5% | /
COC(=O)c1c(-c2ccccc2Cl)noc1-c1cnc(N)nc1C(F)(F)F | 1% | 0%
Cc1c(OC(C)C(=O)NC(Cc2c[nH]c3ccc(O)cc23)C(=O)O)ccc2c1oc(=O)c1ccccc12 (centres undefined) | -5% | -3%
CC(=O)N1CCc2cc(Br)cc(S(=O)(=O)CCC(=O)NCc3ccc(F)cc3)c21 | 0% | -3%
CCn1c(CSc2nc3ccccc3s2)nnc1SCC(=O)c1ccc(O)c(O)c1 | 2% | -12%
Cc1cccc(O)c1C | 1% | -7%
Cc1ccc(-c2nc(Nc3cccc(C)c3)sc2CC(=O)O)cc1 | ? | ?
Cc1ccc(NC(=O)c2ccccc2)cc1 | -14% | -23%
CC(Oc1ccc(F)cc1)C(=O)N(Cc1ccccc1)c1c(N)n(Cc2ccccc2)c(=O)[nH]c1=O (centres undefined) | -9% | i
COc1ccc(Cl)cc1NC(=S)N1CCN(C(=O)C2CCCO2)CC1 (centres undefined) | -7% | i
CC1=C(C(=O)N(C(C)C)C(C)C)CC(CC(=O)NCCCCc2ccccc2)C(=O)N1Cc1ccccc1 (centres undefined) | ? | ?
CCN(C(=O)COC(=O)c1cccn1C)C1CCS(=O)(=O)C1 (centres undefined) | -8% | i
COc1ccc(OCC(=O)N2CCN(C(C)C)CC2)cc1 | 0% | /
CC(NC(=O)c1cc2sccc2n1C)c1ccc2c(c1)OCCO2 (centres undefined) | 12% | ?
COc1ccc2cc3c(N)nn(C(=O)Cc4ccc(Cl)cc4)c3nc2c1 | -13% | ?

# Quoted at random: five entries already listed
mol | VACV Venus inh | VACV mCherry inh
CC1=C(C(=O)N(C(C)C)C(C)C)CC(CC(=O)NCCCCc2ccccc2)C(=O)N1Cc1ccccc1 (centres undefined) | ? | ?
CC(Oc1ccc(F)cc1)C(=O)N(Cc1ccccc1)c1c(N)n(Cc2ccccc2)c(=O)[nH]c1=O (centres undefined) | -9% | i
COC(=O)c1c(-c2ccccc2Cl)noc1-c1cnc(N)nc1C(F)(F)F | 1% | 0%
COc1ccc(OCC(=O)N2CCN(C(C)C)CC2)cc1 | 0% | /
CC(=O)N1CCc2cc(Br)cc(S(=O)(=O)CCC(=O)NCc3ccc(F)cc3)c21 | 0% | -3%

# Continuation.
mol | VACV Venus inh | VACV mCherry inh
CCCC1Oc2ccccc2C(=O)N(CC(=O)c2ccc3c(c2)OCCO3)C1=O (centres undefined) | -8% | -2%
Cc1ccc2occ(CC(=O)Nc3c(C)cccc3C)c2c1 | -7%[7.34 µM] | -7%[7.34 µM]
CC(=O)c1ccc(O[C@@H]2O[C@H](CO)[C@@H](O)[C@H](O)[C@H]2O)cc1 | -18% | i
CC(C)c1ccc(NC(=S)NN2CCOCC2)cc1 | 3% | -11%
CCc1cccc(NC(=O)c2cnc(SC)nc2-c2ccccc2)c1 | -7% | -16%
COc1ccc(-c2c(-c3ccccc3)c(C(=O)C(=O)NCCCN(C)C)n3ccc4cc(OC)c(OC)cc4c23)cc1OC | -15% | -32%
Cn1cccc1CC(=O)NNC(=O)Nc1ccccc1F | -5% | -15%
O=C1c2nc3ccccn3c2C(=O)N1Cc1ccccc1 | -16% | i
CCC(=O)N1CCc2cc(S(=O)(=O)CCC(=O)Nc3ccc(OC(F)(F)F)cc3)ccc21 | -2% | -2%
CC1=Nc2ncnn2C(c2ccccc2)/C1=N\O (centres undefined) | -18% | i
CCOC(=O)c1cc2c(ccn2C)n1CC(=O)N1CCN(c2cccc(C(F)(F)F)c2)CC1 | -24% | -13%
COCCN(C(=O)c1ccc(OCC(C)C)cc1)c1c(N)n(Cc2ccccc2)c(=O)[nH]c1=O | -7% | -21%
CC(=O)Nc1cc(-c2ccc(F)cc2)cn2c(-c3ccc(F)c(Cl)c3)cnc12 | -3% | 9%
CCS(=O)(=O)c1ncc(Cl)c(C(=O)N2CCN(c3cccc(Cl)c3)CC2)n1 | -19%[7.34 µM] | -13%[7.34 µM]
Cc1ccc(Cn2cnc3ccccc32)cc1C | -9% | -5%
Cn1c(NCc2ccco2)nc2c1c(=O)n(Cc1ccc(Cl)cc1)c(=O)n2C | -10% | /
CCOc1cc(C(=O)NC(=S)Nc2ccc(Cl)c(C(=O)O)c2)cc(OCC)c1OCC | -18% | -8%
CCCCN(CCCC)C(=O)CN(C)S(=O)(=O)c1ccc2c(c1)c(=O)n(C)c(=O)n2C | -14% | -20%
O=C(O)c1ccc2c3n(nc2c1)-c1ccc(Cl)cc1CO3 | -19% | i
CC(C)NC(=O)CN1CCN(C(c2cc3ccccc3o2)c2nnnn2C(C)(C)C)CC1 (centres undefined) | 6% | 0%
CCCCCC[n+]1c(-c2ccccc2)csc1Nc1ccccc1 | -4% | i
Oc1ccccc1N1CCN(c2ccc3ccccc3n2)CC1 | -4% | -7%
COC(=O)C1CC(C(=O)OC)C2C(C(=O)OC)CC(C(=O)OC)C12 (centres undefined) | -7% | i
O=c1[nH]c(=O)n([C@H]2C[C@@H](O)[C@@H](CO)O2)cc1F | 14µM* | 3.5µM*
O=C(COc1ccc2ccccc2c1)N1CCN(C(=O)c2ccco2)CC1 | -18% | i
CN(C(=O)COC(=O)/C=C/c1cccs1)c1c(N)n(Cc2ccccc2)c(=O)[nH]c1=O | -8% | -11%
CCOC(=O)Cc1csc(SCC(=O)NC2CCC(C)CC2)n1 (centres undefined) | -16% | -12%
CNc1ccccc1C(C)(C)c1cc(-c2cc(C)cc(C)c2)no1 | -2% | -11%
O=C(C1Cc2ccccc2CN1S(=O)(=O)c1cccs1)N1CCCCCC1 (centres undefined) | -6% | -14%
Cc1onc(-c2c(F)cccc2Cl)c1C(=O)OCC(=O)NC(N)=O | -14% | -21%
CCOC(=O)c1ccc(NC(=O)CN2C(=O)CNC2=O)cc1 | -3% | i
Cc1cc(C(=O)N2CCC(C(F)(F)F)n3nccc32)on1 (centres undefined) | -11% | /
CSc1ccc(Cl)c(C(=O)OCC(=O)NC2CC2)c1 | -9% | -23%
Cc1cc(NCc2ccc(Cl)cc2)n2cnnc2n1 | -28% | ?
CCC1(CC)Cc2ccccc2-c2nc(NCCCO)[nH]c(=O)c21 | -9% | i
Cc1cc(C)cc(NC(=O)C2CCN(S(=O)(=O)c3ccc4[nH]c(=O)ccc4c3)CC2)c1 | -18% | i
Cc1ccc(S(=O)(=O)c2cn(Cc3ccccc3)c3cc(N4CCCC4)c(F)cc3c2=O)cc1C | -10% | -1%
N#CC/C(N)=N/NC(=O)CCCNc1ncc(C(F)(F)F)cc1Cl | -15% | -39%
Cc1cc(C(=O)N/N=C/c2c[nH]c3ccccc23)cs1 | -13% | -27%
COc1cc(C(=O)OC2CCN(C)CC2)cc(OC)c1OC | -6% | -13%
C#CCC(NC(=O)c1ccc(C(F)(F)F)cc1)C(=O)NCCC (centres undefined) | -16% | i
CCOc1ccccc1/C=c1\sc2nc(-c3ccco3)nn2c1=O | -3% | /
COc1ccc(N(CC(=O)Nc2ccccc2C(=O)NCC(C)C)S(C)(=O)=O)cc1 | -14% | i
COc1ccccc1Cn1c(SCC(=O)C(C)(C)C)nc2ccccc2c1=O | -7% | -3%
C[C@H](CO)N1C[C@H](C)[C@@H](CN(C)C(=O)Cc2ccccc2)OCCCC[C@H](C)Oc2ccc(NC(=O)NC3CCCCC3)cc2C1=O | ? | ?
CCN(CC(=O)Nc1ccc(OC)cc1)C(=O)CSCC(=O)Nc1cc(C)on1 | -21% | -9%
Cc1cccc(N2CC(C(=O)OCC(=O)c3c(N)n(CC(C)C)c(=O)n(C)c3=O)CC2=O)c1C (centres undefined) | -17% | i
Cc1nn(CCCC(=O)NCCc2ccccc2)c(=O)c2nccn12 | 11% | 15%
Cc1ccc(CN2CC(C(=O)N3CCN(S(=O)(=O)c4ccccc4)CC3)CC2=O)cc1 (centres undefined) | 1% | -17%
c1ccc2sc(C3(NCC4CC4)CCCCC3)cc2c1 | -15% | -25%
Cc1cc(C)n(-c2ccc(C(=O)Nc3cc(C(F)(F)F)ccc3N3CCOCC3)cc2)n1 | -7% | -22%[1.46 µM]
CCC(C(=O)NC1CCCCC1)n1c(SCc2cccc(F)c2)nc2ccncc21 (centres undefined) | 0%[7.34 µM] | -14%[7.34 µM]
CC(C)COP(=O)(c1ccc(N(C)C)cc1)C(O)c1ccccc1 (centres undefined) | -4% | -18%
O=C(CSc1cccc[n+]1[O-])NCC1CCCCC1 | -11% | -11%
CCOc1c(Br)cc(CNc2ccc3c(c2)OCCO3)cc1OC | ? | ?
COc1ccc(CCNC(=O)C2CC(c3ccccc3F)=NO2)cc1 (centres undefined) | -5% | -14%
COc1ccc(N(C(=O)c2ccco2)S(=O)(=O)c2cc(OC)ccc2OC)cc1 | -13% | /
Clc1ccccc1-c1cc2nc(NCCCn3ccnc3)ccn2n1 | -4% | 9%
CCCC(=O)Nc1ccc2c(c1)nc(CN1CCN(C(=O)OCC)CC1)n2C(C)C | ? | ?
CCCN(CC(=O)Nc1ccc(F)c(F)c1F)CC(=O)Nc1c(Cl)cccc1Cl | -9% | i

# Profiles, quoted from the list.
# COc1cc(C(=O)OC2CCN(C)CC2)cc(OC)c1OC across the screens: VACV Venus inh = -6%; VACV mCherry inh = -13%
# COc1cccc(C(C[N+](=O)[O-])c2c(C)[nH]n(-c3ccccc3)c2=O)c1 (centres undefined) across the screens: VACV Venus inh = -8%; VACV mCherry inh = -1%

# The list continues:
mol | VACV Venus inh | VACV mCherry inh
CCC(=O)Nc1ccc(N2CCCCC2)c(C(=O)Nc2ccc(OC)cc2)c1 | -22% | ?
COc1ccc2nc(NC(=O)[C@@H]3CCCN3C(=O)c3cccs3)sc2c1 | 0% | i
O=C(c1ccccn1)N(CC1CCCO1)C1(C(=O)NC2CCCCC2)CCCCC1 (centres undefined) | -8% | -7%
COc1ccccc1Nc1c2ccccc2nc2ccccc12 | ? | 11µM*
